YopH PTP inh – YopH tyrosine phosphatase inhibitors, primary screen, biochemical, fluorescence Ex485/Em525; inhibition, %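 (about 10 µM by stock and volumes)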; 140,000 compounds, 0.16% hits; AID 898, 2007;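 active = inhibition of 50% or more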;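 also: controls were vehicle for no effect and minimum signal wells for full effect; inactives centre near -20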
Mtb bLac sens – beta-lactam sensitization of Mtb H37Rv, H37Rv | M. tuberculosis H37Rv growth with meropenem, percent inhibition; hits of this screen are not shown here | inhibition, % at 25 µM | 330,000 compounds, 0.27% hits | AID 434955, 2010;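 active = about 74% or more and at least 40 points above the plate without the antibiotic, then above 30% in a dose series; inconclusive = first-round hits that could not be retested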;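 also: growth measured after seven days incubation then overnight dye step; 0% = bacteria only wells and 100% = bacteria with antibiotic; twin plates without the antibiotic show which effects depend on it; some results filed as inactive read as strong as hits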
RecA intein inh – Mtb RecA intein splicing inhibitors, primary screen, biochemical, fluorescence, HTS. cell-free RecA intein splicing. 290,000 compounds, 0.75% hits. AID 2221, 2009. inhibition, %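 (about 9 µM by stock and volumes)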; in the data active = inhibition above about 30%; inconclusive = no clear call, values can overlap the other calls;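 also: 0% = vehicle wells and 100% = reference inhibitor control wells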
Target sequence (P9WHJ3 whole entry, looked up): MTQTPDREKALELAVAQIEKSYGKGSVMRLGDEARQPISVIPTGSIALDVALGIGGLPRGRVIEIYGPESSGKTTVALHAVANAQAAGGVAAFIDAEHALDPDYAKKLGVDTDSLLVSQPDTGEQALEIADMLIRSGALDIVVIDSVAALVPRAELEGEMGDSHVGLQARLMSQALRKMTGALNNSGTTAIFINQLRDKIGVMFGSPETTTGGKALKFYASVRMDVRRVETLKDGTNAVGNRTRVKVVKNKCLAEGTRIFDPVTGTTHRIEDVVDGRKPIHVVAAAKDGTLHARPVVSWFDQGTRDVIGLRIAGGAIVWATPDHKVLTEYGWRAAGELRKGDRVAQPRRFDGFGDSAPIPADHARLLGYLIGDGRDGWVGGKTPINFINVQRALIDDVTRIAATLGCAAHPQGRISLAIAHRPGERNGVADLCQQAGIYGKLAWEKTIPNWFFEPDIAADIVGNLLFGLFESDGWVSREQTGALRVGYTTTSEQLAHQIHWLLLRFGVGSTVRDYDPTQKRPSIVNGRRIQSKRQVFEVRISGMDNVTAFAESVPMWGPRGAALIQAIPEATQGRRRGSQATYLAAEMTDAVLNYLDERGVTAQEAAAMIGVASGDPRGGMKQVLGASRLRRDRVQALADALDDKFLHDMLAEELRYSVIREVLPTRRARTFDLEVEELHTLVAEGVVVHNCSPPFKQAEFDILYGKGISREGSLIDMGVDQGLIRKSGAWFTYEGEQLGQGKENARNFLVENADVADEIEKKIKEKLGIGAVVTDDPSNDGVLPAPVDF
Arbovirus anti – antivirals against arbovirus infection, primary screen, cell-based, full library, 10K replicate subset; arbovirus infection cell-based antiviral screen; inhibition, % at 10 µM; 200,000 compounds, 0.37% hits; AID 1251, 2008;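 active = inhibition from about 30%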;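 also: bluetongue infection of BSR cells; cell survival read as ATP light after 72 h; 0% = infected wells without compound and 100% = uninfected wells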
Mtb growth – M. tuberculosis H37Rv growth inhibitors, H37Rv strain (AID 1626); M. tuberculosis H37Rv growth inhibition; higher % means a stronger effect; one-dose inhibition, % at 10 µM; IC50 in µM for titrated hits; 220,000 compounds, 0.95% hits;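 active = confirmed in a dose series; inconclusive = inhibition above 80% but not taken into the dose series; inactive = below 80% or under 30% at every dose of the series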;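 also: bacteria incubated seven days before Alamar blue readout; 0% = bacteria only wells and 100% = bacteria with antibiotic wells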
Arbovirus anti repeat – further read-out of Arbovirus anti, marked with its call; inhibition, %; measured here: 10K subset replicate screen; many hits read low in the repeat;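 first of two repeat runs on a subset; 0% = infected and 100% = uninfected wells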
Active calls of the source: *; ? = inconclusive; . = no result given. A portion of the library; the hit share may differ from the screen's.

SMILES | YopH PTP inh | Mtb bLac sens | RecA intein inh | Arbovirus anti | Mtb growth | others
CCC(C)[C@H](NC(=O)NCc1ccco1)C(=O)O (some centres not stated) | -41.5 | 0.7 | -1.0 | 8.3 | 1.8%
CCOc1ccccc1NC(=O)/C(C#N)=C/c1c(C)nn(-c2ccc(F)cc2)c1Cl | -24.9 | -6.6 | 0.0 | -14.5 | 0.2%
O=C(COC(=O)c1cc(Br)ccc1Cl)NC1CCCC1 | . | 98.1 | 0.3 | 0.5 | ?
CCN(c1ccccc1)S(=O)(=O)c1cc(C(=O)O)ccc1C | -22.0 | -5.6 | 1.5 | 14.4 | -1.8%
CCOc1cc(C2Nc3ccccc3NC3=C2C(=O)CC(C)(C)C3)ccc1O (configuration not stated) | . | 4.3 | -3.4 | . | .
CCOC(=O)C1CCCN(C(=S)Nc2cccc(Cl)c2)C1 (configuration not stated) | -18.5 | 1.4 | 0.7 | 4.3 | 1.3%
O=C(CCC(=O)N1CCOc2ccccc21)Nc1ccccc1Br | . | 6.6 | -0.3 | . | .
COc1ccc(S(=O)(=O)N2CCNC(=O)C2)cc1Br | . | -6.1 | -0.8 | -3.0 | 6.9%
COc1cccc(N2CC(C(=O)Nc3nnc(SCC(=O)N4CCOCC4)s3)CC2=O)c1 (configuration not stated) | . | -4.0 | 3.1 | . | .
CCOC(=O)c1[nH]c2ccccc2c1NC(=O)C(C)(C)C | -53.2 | -9.0 | -2.3 | 1.4 | 2.2%
CC(C)N(C(=O)Cn1cc(SCC(N)=O)c2ccccc21)C(C)C | . | -22.8 | -1.0 | 6.0 | -4.6%
Cn1c(-c2cccc([N+](=O)[O-])c2)cnc1NCc1ccc(C#N)cc1 | . | 2.9 | -2.1 | -3.2 | -0.3%
Cc1cc2oc(=O)cc(CN3CCN(Cc4ccccc4)CC3)c2cc1O | . | 7.9 | 2.3 | . | .
Cc1cc(C)n2c(SCC#N)nnc2n1 | -31.1 | ? | -0.1 | 3.4 | -8.3% | Arbovirus anti repeat=4.9
O=C(Cc1nc2ccccc2[nH]1)c1cccc([N+](=O)[O-])c1 | . | -5.6 | 3.9 | . | -9.4%
Nc1ccccc1C(=O)NC1CCCNC1=O (configuration not stated) | . | -7.4 | 2.4 | . | .
Cc1ccc(NC(=O)c2nccnc2C(=O)O)cc1C | -38.0 | -7.0 | 2.3 | 12.9 | 5.4%
C=COCCNC(=S)N1CCOCCOCCN(C(=S)NCCOC=C)CCOCCOCC1 | . | -1.1 | -2.3 | 2.2 | -7.8%
Cc1ccc(S(=O)(=O)c2c(C)cc(C)nc2Cl)c(C)c1 | -20.6 | 6.1 | 3.4 | -0.9 | -17.4%
O=C(c1ccccc1F)N1CCN(c2ccccn2)CC1 | . | 2.5 | 0.4 | . | .
CN(Cc1ccc(F)cc1)C(=O)c1sccc1-c1ccccc1 | . | 5.5 | 7.0 | . | .
CCOc1ccc2oc(C(=O)N3CCN(Cc4ccccc4)CC3)c(C)c2c1 | . | 15.1 | 2.1 | . | .
O=C(NCc1ccc(F)cc1)C1CCCN1C(=O)Nc1ccc(F)cc1 (configuration not stated) | . | -2.2 | -1.3 | . | .
CCCn1c(CCc2ccccc2)nnc1SCC(=O)N1CCOCC1 | -3.2 | -7.5 | -0.7 | 9.5 | 4.0%
CC1(C)CC(=O)/C(=C(\O)c2ccccc2)C(=NCCO)C1 | 0.1 | 4.7 | -1.6 | 4.2 | -0.2%
CCCn1nc(C(=O)NNC(=O)c2cc(S(=O)(=O)NC)ccc2Br)c2ccccc2c1=O | . | -0.1 | -0.4 | . | .
Cc1cccc(N(Cc2ccccc2)C(=O)c2ccc(S(C)(=O)=O)cc2)c1 | . | -4.6 | 0.8 | . | .
CNc1ncnc(Sc2ccc(Cl)cc2)c1[N+](=O)[O-] | . | 46.5 | 5.8 | . | 3.4%
CC(=O)OCC(OC(C)=O)C(OC(C)=O)C(OC(C)=O)C(=O)Nc1ccccc1 (configuration not stated) | . | 2.3 | 0.1 | -0.7 | -14.8%
CCOC(=O)C1(Cc2cccc(Cl)c2)CCCN(C(=O)c2cccc(C)n2)C1 (configuration not stated) | . | 0.0 | 4.2 | 16.5 | -5.7%
O=C(COC(=O)C1CC1)Nc1ccc2c(c1)OCO2 | . | 65.0 | 0.2 | 5.6 | -1.4%
CC(C)CC(=O)NC(=S)Nc1ccc(S(=O)(=O)Nc2nccs2)cc1 | -16.2 | -4.0 | -3.5 | 5.7 | 3.8%
COC(=O)c1ccc(NS(=O)(=O)c2cc3c4c(c2)CCN4C(=O)CC3)cc1 | . | -11.1 | -2.2 | . | .
CN(C)CCCN(C(=O)c1ccc(C(=O)c2ccccc2)cc1)c1nc2cc3c(cc2s1)OCCO3 | . | 22.6 | 3.8 | . | .
COC(=O)c1ccccc1NC(=O)CSc1nnc(-c2cccnc2)o1 | . | 5.4 | -4.0 | . | .
CCN(CC)S(=O)(=O)c1ccc(Cl)c(NC(=O)COC(=O)c2c(C)noc2C)c1 | -32.3 | -4.5 | -2.9 | 5.2 | 4.3%
NC(=NCCc1ccccc1)NS(=O)(=O)c1ccccc1 | -12.3 | 0.9 | 1.3 | 2.0 | -6.4%
O=C(Nc1cccnc1Cl)c1cc(-c2ccc(O)cc2)on1 | . | 8.7 | -1.5 | . | .
CCC(=O)c1ccc(OCC(O)CN2CCOCC2)cc1 (configuration not stated) | -16.9 | -3.3 | -0.7 | 7.9 | -2.5%
CCOc1ccc(S(=O)(=O)NCCC(=O)N(CC)CC(=O)Nc2c(F)cccc2F)cc1 | . | -5.2 | 15.2 | . | .
CC(C)C(=O)O/N=C1\CCS(=O)(=O)c2sccc21 | . | 0.9 | -1.3 | 2.8 | 9.2%
Cc1c(C(=O)N2CCOCC2)c(S(=O)(=O)Nc2cccc(Br)c2)c(C)n1C | . | 7.1 | -2.6 | . | .
O=C(c1ccccc1F)N1CCN(c2ccccc2)CC1 | 2.9 | -13.4 | 0.8 | 0.2 | 0.6%
CCN(CC(=O)Nc1ccccc1C(F)(F)F)C(=O)CN1C(=O)NC2(CCCCC2)C1=O | . | 8.1 | -7.6 | . | .
CC(=O)c1ccc(NC(=O)c2noc(C)c2[N+](=O)[O-])cc1 | . | -0.1 | 0.4 | . | .
COc1cccc(-c2cc(C(=O)N3CCN(C(=O)c4ccco4)CC3)[nH]n2)c1 | . | 1.3 | -1.1 | . | .
COc1ccc(OCc2nnc(SCC(=O)N3CCOCC3)o2)cc1 | . | -8.9 | -3.1 | -2.3 | -6.2%
CN(CCO)C(=O)CCC(=O)Nc1ccc(S(N)(=O)=O)cc1 | -35.9 | -5.1 | 0.9 | 4.2 | -3.4%
CCn1c(CNC(=O)c2cccc(C)c2)nnc1SCC(=O)NC1CCCC1 | . | -6.2 | -1.5 | . | .
CCc1ccc2c(c1)c1nnc(NN)nc1n2C | . | 1.1 | 1.8 | . | -4.1%
The list continues:
SMILES | YopH PTP inh | Mtb bLac sens | RecA intein inh | Arbovirus anti | Mtb growth | others
COc1ccccc1NC(=O)C(C)OC(=O)Cc1n[nH]c(=O)c2ccccc12 (configuration not stated) | . | -1.5 | 3.5 | . | .
O=C(OCC(=O)c1ccc(Cl)s1)c1ccc(CO)cc1 | . | 59.0 | 1.2 | . | .
CCCCCCC[n+]1ccc(-c2cc[n+](CCCCCCC)cc2)cc1 | -16.0 | 98.9 | 4.7 | -16.3 | ?
Cc1ccc(-c2noc(CSc3nnc(-c4cccs4)n3C)n2)cc1 | -10.4 | -2.7 | -2.3 | -5.3 | -1.8%
CCCCn1c(SCC(=O)NC2CC2)nc2ccccc2c1=O | . | 0.2 | -77.9 | . | .
Cc1ccc2nc(SCc3nc4ccccc4c(=O)[nH]3)[nH]c2c1 | . | 1.8 | 1.2 | 1.5 | 0.5%
CCOC(=O)/C(C#N)=C1/C=CN(C)C(C)=N1 | 13.9 | 1.5 | -2.2 | 7.0 | -9.4%
Cn1c(N)c(C(=O)COC(=O)C2(c3cccc(F)c3)CCCC2)c(=O)n(C)c1=O | -22.5 | -0.6 | 2.4 | 2.2 | 10.1%
Cc1nn(-c2ccc(F)cc2)c(Cl)c1/C=C/C(=O)N1CCNC(=O)C1 | . | 1.9 | -0.1 | 18.7 | -3.8%
O=C(COc1ccc2ccc(=O)oc2c1)OCc1ccccc1 | . | 77.7 | 1.4 | 4.0 | 38.1%

19 successive entries from above:
SMILES | YopH PTP inh | Mtb bLac sens | RecA intein inh | Arbovirus anti | Mtb growth | others
Cc1c(C(=O)N2CCOCC2)c(S(=O)(=O)Nc2cccc(Br)c2)c(C)n1C | . | 7.1 | -2.6 | . | .
O=C(c1ccccc1F)N1CCN(c2ccccc2)CC1 | 2.9 | -13.4 | 0.8 | 0.2 | 0.6%
CCN(CC(=O)Nc1ccccc1C(F)(F)F)C(=O)CN1C(=O)NC2(CCCCC2)C1=O | . | 8.1 | -7.6 | . | .
CC(=O)c1ccc(NC(=O)c2noc(C)c2[N+](=O)[O-])cc1 | . | -0.1 | 0.4 | . | .
COc1cccc(-c2cc(C(=O)N3CCN(C(=O)c4ccco4)CC3)[nH]n2)c1 | . | 1.3 | -1.1 | . | .
COc1ccc(OCc2nnc(SCC(=O)N3CCOCC3)o2)cc1 | . | -8.9 | -3.1 | -2.3 | -6.2%
CN(CCO)C(=O)CCC(=O)Nc1ccc(S(N)(=O)=O)cc1 | -35.9 | -5.1 | 0.9 | 4.2 | -3.4%
CCn1c(CNC(=O)c2cccc(C)c2)nnc1SCC(=O)NC1CCCC1 | . | -6.2 | -1.5 | . | .
CCc1ccc2c(c1)c1nnc(NN)nc1n2C | . | 1.1 | 1.8 | . | -4.1%
COc1ccccc1NC(=O)C(C)OC(=O)Cc1n[nH]c(=O)c2ccccc12 (configuration not stated) | . | -1.5 | 3.5 | . | .
O=C(OCC(=O)c1ccc(Cl)s1)c1ccc(CO)cc1 | . | 59.0 | 1.2 | . | .
CCCCCCC[n+]1ccc(-c2cc[n+](CCCCCCC)cc2)cc1 | -16.0 | 98.9 | 4.7 | -16.3 | ?
Cc1ccc(-c2noc(CSc3nnc(-c4cccs4)n3C)n2)cc1 | -10.4 | -2.7 | -2.3 | -5.3 | -1.8%
CCCCn1c(SCC(=O)NC2CC2)nc2ccccc2c1=O | . | 0.2 | -77.9 | . | .
Cc1ccc2nc(SCc3nc4ccccc4c(=O)[nH]3)[nH]c2c1 | . | 1.8 | 1.2 | 1.5 | 0.5%
CCOC(=O)/C(C#N)=C1/C=CN(C)C(C)=N1 | 13.9 | 1.5 | -2.2 | 7.0 | -9.4%
Cn1c(N)c(C(=O)COC(=O)C2(c3cccc(F)c3)CCCC2)c(=O)n(C)c1=O | -22.5 | -0.6 | 2.4 | 2.2 | 10.1%
Cc1nn(-c2ccc(F)cc2)c(Cl)c1/C=C/C(=O)N1CCNC(=O)C1 | . | 1.9 | -0.1 | 18.7 | -3.8%
O=C(COc1ccc2ccc(=O)oc2c1)OCc1ccccc1 | . | 77.7 | 1.4 | 4.0 | 38.1%

(further entries)
SMILES | YopH PTP inh | Mtb bLac sens | RecA intein inh | Arbovirus anti | Mtb growth | others
COc1cccc(C(=O)N(C)CC(=O)Nc2ccc(F)c(F)c2F)c1 | . | -2.6 | -0.5 | . | .
COc1ccc2[nH]c3nc(SCc4nnc(-c5ccc(C)cc5)o4)nnc3c2c1 | -49.6 | 2.5 | 1.1 | -11.5 | -6.1%
O=C(O)c1nn(CC(=O)N2CCN(c3ncc(C(F)(F)F)cc3Cl)CC2)c(=O)c2ccccc12 | . | -1.6 | 1.6 | . | .
CC(=O)c1ccc(S(=O)(=O)NC2CC(=O)N(c3ccc(Cl)cc3)C2)cc1 (configuration not stated) | . | -4.9 | -4.7 | . | .
FC(F)(F)c1cccc(Cc2noc(CN3CCCCC3c3ccccn3)n2)c1 (configuration not stated) | . | -7.8 | 3.5 | 1.2 | -14.0%
COc1ccc(NC(=O)CCc2nc(-c3ccc(C)cc3)no2)cc1Cl | -65.2 | 96.0 | 10.0 | 2.5 | 3.59µM*
Cc1ccc2[nH]c(-c3ccccc3)c(CN3CCOCC3)c(=O)c2c1 | -22.6 | -7.6 | -2.9 | -4.8 | -6.4%
COC(=O)c1c(C)nsc1NC(=O)Oc1ccccc1 | . | 6.5 | 1.9 | 11.5 | -5.9%
CCNC(=S)N(CCc1c(C)[nH]c2ccc(C)cc12)Cc1cccnc1 | . | -2.0 | 0.0 | . | .
CCOC(=O)C1C(=O)OC2(CCCC2)C1C(=O)OCC (configuration not stated) | 36.1 | -4.1 | -5.1 | 6.5 | 9.2%
